Beta2AR agonist: agonists of human beta-2 adrenergic receptor inducing internalization | response, % (test concentration not listed) | 340,000 tested, 0.43% active | P07550 | Am2.2-beta2AR cells, FAP receptor internalization, flow cytometry; reference of the scale not given here;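 active = response above a set limit, near 3 SD of response in nonfluorescent compounds, cut at about 42% in these data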;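 note: stock transfer was 100 nL into about 11 µL; a reference agonist was the positive control; negative values mostly stem from fluorescent compounds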
Target sequence (P07550 whole entry, looked up): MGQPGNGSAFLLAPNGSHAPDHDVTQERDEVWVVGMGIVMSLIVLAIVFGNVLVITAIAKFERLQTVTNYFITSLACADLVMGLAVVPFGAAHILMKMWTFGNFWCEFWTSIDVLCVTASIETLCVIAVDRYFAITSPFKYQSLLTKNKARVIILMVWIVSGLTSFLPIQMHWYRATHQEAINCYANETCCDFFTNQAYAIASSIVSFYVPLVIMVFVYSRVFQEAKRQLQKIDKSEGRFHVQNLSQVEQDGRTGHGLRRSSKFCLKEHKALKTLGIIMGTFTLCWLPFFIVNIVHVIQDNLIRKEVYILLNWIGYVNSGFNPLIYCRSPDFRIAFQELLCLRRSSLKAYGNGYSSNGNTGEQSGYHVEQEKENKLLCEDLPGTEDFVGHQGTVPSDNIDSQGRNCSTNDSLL
FGF22 binding: shifts melting point of recombinant human FGF22; 340,000 tested, 1.5% active; recombinant FGF22 thermal shift, SYPRO orange fluorescence; percent of sucrose octasulfate shift, DMSO zero; Q9HCT0; AID 651658; calls only at 9.99 µM;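 active = melting point raised past a set limit in the mean and every replicate; three in four hits are not shown here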
Target sequence (Q9HCT0 whole entry, looked up): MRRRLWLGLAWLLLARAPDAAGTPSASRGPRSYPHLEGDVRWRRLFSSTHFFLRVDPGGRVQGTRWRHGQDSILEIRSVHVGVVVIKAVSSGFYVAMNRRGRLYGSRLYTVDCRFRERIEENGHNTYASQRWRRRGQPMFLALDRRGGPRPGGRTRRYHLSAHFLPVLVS
UCH37 DUB inh: blocks the human deubiquitinase UCH37; Q9Y5K5; purified proteasome/UCH37, Ub-AMC cleavage fluorescence; inhibition, % (concentration not given with the values); 330,000 tested, 0.33% active;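 active = mean of two replicates above 20%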;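 note: 0% = compound-free wells with enzyme and 100% = wells lacking proteasome; stock transfer was 100 nL into about 20 µL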
Target sequence (Q9Y5K5 whole entry, looked up): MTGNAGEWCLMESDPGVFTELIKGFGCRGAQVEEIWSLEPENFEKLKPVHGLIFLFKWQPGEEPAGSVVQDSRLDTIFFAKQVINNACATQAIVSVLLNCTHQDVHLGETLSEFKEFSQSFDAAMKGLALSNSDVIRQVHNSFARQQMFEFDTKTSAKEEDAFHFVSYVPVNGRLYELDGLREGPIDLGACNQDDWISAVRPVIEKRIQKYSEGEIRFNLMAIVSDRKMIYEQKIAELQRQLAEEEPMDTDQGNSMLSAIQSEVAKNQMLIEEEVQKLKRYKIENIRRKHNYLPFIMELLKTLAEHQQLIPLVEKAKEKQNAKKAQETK
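System: Proteasome-associated human UCH37 deubiquitinase; Input: 0.15 nM proteasome in added enzyme buffer; Also added: Ub-AMC substrate from 1 µM stock; Incubation: 30 min compound-proteasome preincubation then 25 min substrate reaction, room temperature; Detection: fluorescence, ex 355 nm, em 460 nm; Read-out: % inhibition of Ub-AMC cleavage fluorescence; Benchmarks: no-proteasome and no-compound wells.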
ALR H2O2 inh: blocks human ALR sulfhydryl oxidase activity; P55789; purified ALR, DTT oxidation, H2O2 HRP-luminol luminescence; inhibition, % (no concentration beside the values); 290,000 tested, 3.8% active; AID 485317;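 active = mean and each replicate at 75% or more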;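 note: stock transfer was 7.5 nL into about 7.5 µL; 0% = neutral wells and 100% = wells with inactivated enzyme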
E coli growth: E. coli growth inhibition; Escherichia coli growth, OD600, 23 h; stronger effect = lower value; OD600 absorbance (test concentration not listed); 330,000 tested, 0.21% active; AID 1053175;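 active = OD600 absorbance below the run mean of sample wells minus 3.6 SD, in any replicate, cut at about 0.56 in these data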;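 note: stock transfer was 300 nL into about 60 µL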
LANA-H2A inh: blocks KSHV LANA binding to histone H2A/H2B | Q9QR71 | cell-free LANA-H2A/H2B peptide, fluorescence polarization | inhibition, % (no concentration beside the values) | AID 2629 | 320,000 tested, 0.6% active; in the data active = inhibition mostly above about 10%, no sharp cut-off; inactive = mostly below about 6.7%;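 note: stock transfer was 7.5 nL into about 10 µL; 0% = median of vehicle wells and 100% = median of positive control wells; one replicate is shown; the record names a cut of 25% in any replicate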
HNF4A DNA FP: change in binding of human HNF4 alpha to DNA; 360,000 tested, 0.3% active; HNF4a-FITC DNA binding, fluorescence polarization, 1 h; activity change, % at 10 µM; in the data active = activity change above about 30%, passing the limit was not always enough;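 note: controls were the assay level and a saturating level of protein; the project sought stronger binding though the title names inhibitors; some compounds called inactive have numbers as strong as hits; positive values seem to mean higher polarization but the record does not say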
* marks the source's active call; other numbers are inactive results; i = inactive; nt = no result given. The list is partial (hit frequency here may not be typical).

SMILES	Beta2AR agonist	FGF22 binding	UCH37 DUB inh	ALR H2O2 inh	E coli growth	LANA-H2A inh	HNF4A DNA FP
O=C(Cn1nnc(-c2ccncc2)n1)N1CCc2ccccc21	4	i	2.8	-1	0.7	-0.9	-0.6
COc1ccccc1CNC(=O)C1CCN(C(=O)c2sccc2-n2cccc2)CC1	-5	i	-0.6	-7	0.62	-0.2	-1.6
CC(c1ccccc1)n1c(SCC(=O)N2CC(=O)Nc3ccccc32)nc2ccccc2c1=O (stereo unspecified)	-6	nt	3.2	-3	0.69	-4.4	2.8
Cc1cccc2cc(CN(CCCO)C(=O)Nc3ccccc3Cl)c(=O)[nH]c12	2	nt	-0.3	3	0.74	-2.5	-0.8
Fc1ccccc1-c1nc(NCc2ccco2)c2ccccc2n1	-8	i	1.3	5	0.69	-3.8	0.9
O=C(c1ccc(S(=O)(=O)NCc2ccco2)cc1)N1CCN(Cc2ccc3c(c2)OCO3)CC1	3	i	2.6	-26	0.7	0.4	2.8
COc1ccccc1N1CCN(/N=C/c2ccc(O)c(O)c2)CC1	nt	i	nt	100*	nt	5.1	nt
Nc1nc(NCc2ccc(Cl)cc2)nc(NCCO)c1[N+](=O)[O-]	-7	i	11	-1	0.68	-2.2	-0.1
S=C(NCCc1ccccn1)Nc1cccc(Cl)c1	-7	i	0.3	97*	0.67	1.7	1.2
O=C(CCCCCl)Nc1c2c(nc3ccccc13)CCC2	-2	i	nt	-7	nt	-0.3	-5.3
CCc1ccc(NC(=O)CSc2ccc(-c3sc(C)nc3C)nn2)cc1	-3	i	4.9	-10	0.69	-0.6	4.7
COc1ccc(NC(=O)Nc2cc(F)ccc2C)cc1	-6	i	4.8	1	0.67	-1.1	4.7
Cc1cc(N(C)C)cc(C)[n+]1[O-]	2	nt	-0.2	-4	0.73	-0.1	-0.6
Cc1ccc(OCCCC(=O)Nc2ccc3c(c2)OCCO3)cc1	4	i	-1.0	-1	0.67	1.1	-1.7
Cc1cccc(-c2nc(S(=O)(=O)c3ccccc3)c(N3CCOCC3)o2)c1	-5	i	nt	1	nt	3.2	-0.4
COC(=O)[C@]1(Cc2ccccc2)N[C@H](c2ccc(-c3ccccc3)cc2)[C@@H]2C(=O)N(C)C(=O)[C@@H]21	-11	i	1.6	-4	nt	-4.3	6.9
Cc1ccccc1-c1nnn(CC(=O)N2CCN(C(=O)c3ccco3)CC2)n1	-5	i	2.4	2	0.7	-3.1	5.7
O=C(COC(=O)/C=C/c1cccc(Cl)c1)NCCc1ccc(Cl)cc1Cl	-5	nt	-0.8	41	0.72	-1.3	-4.2
COC(=O)c1ccc(/C=C/c2ccc3cccc(OC)c3n2)cc1	3	i	-308	-19	0.69	3.6	-0.4
CCOC(=O)C1CCCN(C(=O)c2ccc3ncsc3c2)C1 (stereo unspecified)	14	i	4.0	96*	0.66	3.4	0.4
O=C(CCCN1C(=O)c2cccnc2C1=O)N1CC(=O)N(CCc2ccccc2)C(=O)C1	-3	nt	1.4	-9	0.74	25*	1.5
CC(=O)c1cc(C(c2csc(C(C)=O)c2)c2csc(C(C)=O)c2)cs1	4	nt	4.2	nt	0.73	-1.9	-0.8
Cc1noc(C)c1S(=O)(=O)N(C)C[C@H]1Oc2c(NC(=O)C3CCCCC3)cccc2C(=O)N([C@H](C)CO)C[C@@H]1C	-4	i	2.8	1	0.69	nt	-2.8
COCCCNC(=O)CSc1nc2ccccc2c(=O)n1Cc1ccc2c(c1)OCO2	0	i	3.6	12	0.72	3.0	-1.0
CCOC(=O)N1CCN(C(=O)CCNS(=O)(=O)c2cc(Br)cnc2N)CC1	-1	nt	-5.3	-28	0.7	2.1	1.5
SMILES	Beta2AR agonist	FGF22 binding	UCH37 DUB inh	ALR H2O2 inh	E coli growth	LANA-H2A inh	HNF4A DNA FP
Cc1cccc(OC(=O)n2c(=S)oc3cc(Cl)ccc32)c1	10	nt	4.1	nt	0.62	3.1	2.8
COc1ccc(OCC2CCCN(Cc3nc(CC4CC4)no3)C2)cc1 (stereo unspecified)	-6	i	3.1	-4	0.66	-1.4	-2.5
Cc1cc2nccc(-c3ccc(Cl)c([N+](=O)[O-])c3)n2n1	17	nt	3.3	-2	0.67	1.7	1.5
O=C1C=C(c2ccc3[nH]ccc3c2)C[C@@H](c2ccc(Cl)cc2)C1	10	i	3.4	0	nt	4.4	5.6
COc1cc(-c2[nH]ncc2CN(C)Cc2cc(C)[nH]n2)cc(OC)c1OC	0	i	4.5	6	0.65	3.0	0.3
CCOC(=O)C1CCCN(C(=O)c2sc3nc4n(c(=O)c3c2C)CCC4)C1 (stereo unspecified)	4	i	3.5	-3	0.71	-10	1.3
COc1ccccc1CNC(=O)C1CCN(S(C)(=O)=O)CC1	-2	nt	0.5	-4	0.71	-3.8	0.2
CCOc1ccc(NS(=O)(=O)c2ccc(OC)c(NC(=O)c3ccc4c(c3)OCCO4)c2)cc1	0	nt	0.4	nt	0.67	nt	2.9
CC(C)OCCCNC(=O)C1CCN(S(=O)(=O)N2CCCCC2)CC1	1	nt	-0.2	-3	0.65	0.3	1.0
Cc1nn(C)c(Oc2ccc(Cl)cc2)c1C(=O)Nc1ccc(F)cc1F	-20	i	2.2	-5	0.74	-2.6	-3.0
COc1ccc(Nc2nnc(SCC(=O)N3CCCC3)s2)cc1	1	nt	3.9	10	0.71	-1.2	1.1
COc1cc2c(cc1OC)C(c1cc(Br)ccc1O)N(C(C)=O)CC2 (stereo unspecified)	-2	i	0.5	1	0.68	-2.0	-7.6
Cc1nnc(NC(=O)COc2ccccc2)s1	2	nt	-3.9	-3	0.67	1.8	-0.7
CC(C)(C)OC(=O)CNC(=O)c1[nH]cnc1C(=O)NCCCCCNC(=O)OC(C)(C)C	15	i	4.8	nt	0.69	-1.0	0.2
COc1ccc(C(=O)NC(=O)Nc2cc(C)ccn2)cc1	-10	nt	0.4	-1	0.7	-0.7	2.4
C=CCNC(=S)/N=c1/ccccn1CCC	0	i	nt	11	nt	-3.2	-0.8
Cc1cc(NC(=O)CCC(=O)N(c2ccccc2)C(C(=O)NC(C)(C)C)c2ccccc2Cl)no1 (stereo unspecified)	-6	i	-0.2	-2	0.67	11	-1.2
COc1ccc(S(=O)(=O)NC(C)(C)C)cc1-c1nnc2c3ccccc3c(C)nn12	-9	nt	0.8	1	0.68	2.0	0.7
COC(=O)Cc1cc(=O)n(-c2ccccc2)[nH]1	4	i	1.0	9	0.72	0.3	1.6
CC(c1ccccc1)N(CC(=O)NC1CCCCC1)S(=O)(=O)c1cccc(C(F)(F)F)c1 (stereo unspecified)	-9	i	-0.3	-2	0.69	-5.1	-2.0
O=C(O)c1cnc2[nH]c3ccccc3n2c1=O	-2	i	i	2	0.66	0.2	-2.1
N#C/C(=C\c1ccc(-c2ccc(S(=O)(=O)N3CCOCC3)cc2)o1)C(=O)NC1CC1	-18	nt	-3.7	11	0.64	4.3	2.6
Cc1cccc(NC(=S)NNC(=O)c2cccc([N+](=O)[O-])c2)c1	10	i	8.5	68	0.7	0.2	4.6
Cc1ccc(CCSc2ccc(F)cc2)cn1	-5	i	6.0	-7	0.66	-2.3	-2.6
NC(N)=NS(=O)(=O)c1ccc(NC(=S)NC(=O)/C=C/c2ccccc2)cc1	1	i	2.7	3	0.71	3.0	2.0
SMILES	Beta2AR agonist	FGF22 binding	UCH37 DUB inh	ALR H2O2 inh	E coli growth	LANA-H2A inh	HNF4A DNA FP
CCS(=O)(=O)C1=NN2C(=N)/C(=C\c3ccc(SCc4ccco4)o3)C(=O)N=C2S1	-12	nt	7.5	nt	0.66	nt	32
O=C(COC(=O)/C=C/c1cccc(C(F)(F)F)c1)NC1CCS(=O)(=O)C1 (stereo unspecified)	-4	i	3.5	nt	0.71	nt	2.9
COc1ccccc1[C@@H]1C(c2cccc(Cl)c2)=NN(c2ccc(Br)cc2)[C@H]1C(=O)N1CCOC1=O	-3	i	-124	nt	nt	3.6	-0.1
COC(=O)[C@]1(C)N[C@H](CN(C)C(=O)c2ccccc2)[C@@H]2C(=O)N(Cc3ccccc3)C(=O)[C@@H]21	-7	i	0.1	nt	0.7	nt	2.6
COc1ccc(CNC(c2ccccc2)c2ccc(Cl)cc2)cc1 (stereo unspecified)	-1	i	5.3	-13	0.65	7.4	2.0
CCOC(=O)c1cc2c(=Cc3ccc(N(C)C)cc3)c3ccccc3n2[n+]1C	-173	i	nt	nt	nt	nt	57*
COc1ccccc1OCC(=O)NNC(=O)c1ccoc1C	0	i	1.8	20	0.71	1.8	0.8
CCOc1ncccc1C(=O)NNC(=O)c1ccccc1-n1cccc1	-5	i	4.5	-3	0.66	-5.2	-1.7
Cc1cc(CNC(=O)C2CCC(=O)N(Cc3ccccc3F)C2)nn1C (stereo unspecified)	-6	i	0.4	0	0.72	4.3	0.4
COc1cc(/C=N/Nc2nc(N3CCCC3)nc(N3CCCC3)n2)ccc1OCc1ccccc1F	25	i	nt	-22	nt	-0.4	-2.3
COc1cc(/C=N/N2C(=O)C3C4c5ccccc5C(c5ccccc54)C3C2=O)ccc1O (stereo unspecified)	10	nt	nt	16	nt	-2.8	2.5
Cn1c(=O)c2c(ncn2CC(=O)Nc2nc(-c3ccc(F)c(F)c3)cs2)n(C)c1=O	-5	i	1.8	nt	0.71	2.0	2.5
COc1ccc(CCc2nnc(CCC(=O)NCc3ccc4ncccc4c3)o2)cc1	0	i	1.3	-9	0.67	4.4	0.1
CCn1c(SCC(=O)NCCc2ccccc2)nnc1C(C)C	0	i	4.0	1	0.65	3.9	-1.1
COc1ccc(S(=O)(=O)N2CCOC23CCN(S(=O)(=O)c2cc(F)ccc2F)CC3)cc1	3	nt	3.3	-6	0.7	0.8	0.9
COc1cccc(C(=O)Nc2cccc(-c3ccc(N4CCOCC4)nn3)c2)c1OC	17	i	-0.3	-9	0.63	2.3	-3.4
N#C/C(=C\Nc1ccc(F)c(Cl)c1)C(=O)C1CC1	-13	i	4.3	-10	0.64	3.4	1.6
COc1cccc(CSc2nc3sc(C)c(C)c3c(=O)n2Cc2ccco2)c1	-4	nt	5.4	49	0.69	-1.3	-0.9
CC(=O)Nc1cccc(OCC(=O)Nc2sccc2C(N)=O)c1	20	i	-0.1	-5	0.67	2.6	-0.3
CC1Cc2cc(S(=O)(=O)N3CCC(C(=O)N(C)Cc4ccccc4)CC3)ccc2N1C(=O)C1CC1 (stereo unspecified)	-9	i	4.3	-14	0.7	-1.3	-0.5
O=C(Nc1nc2ccccc2s1)c1ccccc1[N+](=O)[O-]	1	i	5.7	-2	0.66	-3.2	0.7
Cc1nc2ccccc2c(=O)n1NC(=O)c1ccccc1F	1	i	0.2	0	0.67	-3.0	0.8
CC(C)Cn1c(C(C)NC(=O)Cc2ccccc2)nc2ccccc21 (stereo unspecified)	2	i	3.4	-20	0.76	5.5	2.0
Cc1ccc(-c2nc(NCCN(C)C)c3ccccc3n2)cc1	17	i	-3.2	6	0.62	-2.6	-8.2
Cc1cc2cc(CNC(=O)c3ccc(Br)o3)ccc2[nH]1	3	i	7.3	-6	0.72	-1.5	-4.8
COc1ccccc1-c1nnc(NC(=O)c2ccccc2F)o1	0	i	0.5	24	0.72	13	0.3
CCc1cccc(OCC(=O)Nc2ccc(C)c(S(=O)(=O)N3CCCCCC3)c2)c1	-2	i	3.0	nt	0.73	nt	-0.5

Arranged by number of heavy atoms (low to high): 4 of the compounds above.
SMILES	Beta2AR agonist	FGF22 binding	UCH37 DUB inh	ALR H2O2 inh	E coli growth	LANA-H2A inh	HNF4A DNA FP
O=C(Nc1nc2ccccc2s1)c1ccccc1[N+](=O)[O-]	1	i	5.7	-2	0.66	-3.2	0.7
COc1cccc(CSc2nc3sc(C)c(C)c3c(=O)n2Cc2ccco2)c1	-4	nt	5.4	49	0.69	-1.3	-0.9
Cn1c(=O)c2c(ncn2CC(=O)Nc2nc(-c3ccc(F)c(F)c3)cs2)n(C)c1=O	-5	i	1.8	nt	0.71	2.0	2.5
COc1ccc(CCc2nnc(CCC(=O)NCc3ccc4ncccc4c3)o2)cc1	0	i	1.3	-9	0.67	4.4	0.1
